# Assay outcomes deposited in PubChem by Broad Institute.
# A1 apoptosis 2 = compounds inhibiting A1, read as caspase activation. MEF A1-2A-BIM cells, caspase-Glo luminescence, 3 h; percent of clofoctol response, DMSO zero. caspase activation, % (test concentration not listed). 24,000 tested, under 10 active. AID 2465; in the data active means caspase activation above about 5.9%;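 further: wells of about 30 µL received 50 nL stock; the first replicate is given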
#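 Evaluation: Caspase-3/7 activity from luminescence increase | Assay system: A1-2A-BIM mouse embryonic fibroblasts | Quantity: 2500 MEF cells/well | Medium: RPMI-1640 plus 10% FBS | Detection: Caspase-Glo 3/7 luminescence, 1 h at room temperature | Dosing: 50 nL compound per well, pinned | Timing: Cells settled overnight, compound exposure 3 h at 37 °C, 5% CO2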
# Active calls of the source: *; & = joins results of further samples. This is a subset, so the mix of outcomes need not match the whole.
SMILES	A1 apoptosis 2
C[C@H]1CN([C@@H](C)CO)C(=O)c2cccc(NC(=O)Nc3ccccc3)c2O[C@H]1CN(C)C(=O)Nc1ccccc1	-1.7
C[C@H]1CN([C@@H](C)CO)C(=O)c2cccc(NC(=O)Nc3ccc(F)cc3)c2O[C@H]1CN(C)CC1CC1	0.5
COCCOC(=O)N1C(=O)[C@@]2(c3ccccc31)[C@H](C(N)=O)[C@H]1C(=O)O[C@H](c3ccccc3)[C@H](c3ccccc3)N1[C@@H]2c1ccc(O)cc1	-4.3
CCCCCCC/C=N/NC(=O)CCCCCCC(=O)OC	0.9
C[C@H](CO)N1C[C@H](C)[C@H](CN(C)Cc2ccc(Cl)c(Cl)c2)OCCCC[C@H](C)Oc2ccc(NC(=O)Nc3ccccc3)cc2C1=O	-1.1
C[C@H](CO)N1C[C@H](C)[C@H](CN(C)S(C)(=O)=O)Oc2ccc(NC(=O)Cc3cn(C)c4ccccc34)cc2CC1=O	0.8
C[C@@H]1CN([C@H](C)CO)C(=O)c2cc(NC(=O)Nc3ccccc3)ccc2O[C@@H]1CN(C)C(=O)Nc1ccccc1	0.1
Cc1ccc(S(=O)(=O)N(C)C[C@H]2Oc3ccc(NC(=O)c4ccncc4)cc3C(=O)N([C@H](C)CO)C[C@H]2C)cc1	0.5
C[C@H](CO)N1C[C@H](C)[C@H](CN(C)Cc2ccc(C(F)(F)F)cc2)Oc2ccc(NC(=O)C3CC3)cc2CC1=O	-0.4
Cc1noc(C)c1NC(=O)Nc1cccc2c1O[C@@H](CN(C)CC1CC1)[C@H](C)CN([C@@H](C)CO)C2=O	-1.0
Cc1noc(C)c1NC(=O)Nc1cccc2c1O[C@H](CN(C)CC1CC1)[C@H](C)CN([C@H](C)CO)C2=O	-0.7
C[C@@H]1CN([C@@H](C)CO)C(=O)c2cc(NS(C)(=O)=O)ccc2O[C@@H](C)CCCCO[C@@H]1CN(C)C(=O)c1ccccc1	-0.1
C[C@H]1CN([C@@H](C)CO)C(=O)c2cc(NC(=O)NC3CCCCC3)ccc2O[C@H]1CN(C)C(=O)NC1CCCCC1	-2.5
CC(C)NC(=O)N(C)C[C@@H]1OCCCC[C@@H](C)Oc2ccc(NS(C)(=O)=O)cc2C(=O)N([C@@H](C)CO)C[C@H]1C	-0.1
COc1ccc(NC(=O)Nc2ccc3c(c2)C(=O)N([C@@H](C)CO)C[C@H](C)[C@@H](CN(C)C)O3)cc1	0.7
C[C@@H]1CN([C@H](C)CO)C(=O)Cc2cc(NC(=O)C3CCCCC3)ccc2O[C@H]1CN(C)Cc1ccccc1	0.4
CC(C)NC(=O)Nc1ccc2c(c1)C(=O)N([C@H](C)CO)C[C@@H](C)[C@@H](CN(C)Cc1ccccc1)O2	0.1
Cc1noc(C)c1NC(=O)N(C)C[C@@H]1OCCCC[C@@H](C)Oc2ccc(NC(=O)Nc3ccc4c(c3)OCO4)cc2C(=O)N([C@@H](C)CO)C[C@H]1C	-0.7
C[C@@H]1CN([C@H](C)CO)C(=O)c2cc(NC(=O)C3CCCCC3)ccc2O[C@H]1CN(C)C(=O)Nc1ccccc1	-0.4
C[C@@H]1CN([C@@H](C)CO)C(=O)c2cc(NC(=O)Nc3cccc4ccccc34)ccc2O[C@@H](C)CCCCO[C@H]1CN(C)Cc1ccc(C(F)(F)F)cc1	-0.8
CNC[C@@H]1Oc2ccc(NC(=O)Nc3ccc(F)cc3)cc2C(=O)N([C@@H](C)CO)C[C@H]1C	-1.2
Cc1ccc(S(=O)(=O)N(C)C[C@@H]2Oc3ccc(NC(=O)Cn4cnnn4)cc3C(=O)N([C@H](C)CO)C[C@H]2C)cc1	-0.3
COc1ccc(NC(=O)Nc2ccc3c(c2)C(=O)N([C@H](C)CO)C[C@H](C)[C@H](CN(C)C(=O)CCCN(C)C)OCCCC[C@H](C)O3)cc1	-1.0
Cc1ccc(S(=O)(=O)N(C)C[C@@H]2Oc3c(NS(=O)(=O)c4cn(C)cn4)cccc3C(=O)N([C@H](C)CO)C[C@H]2C)cc1	-0.5
C[C@H]1CN([C@@H](C)CO)C(=O)c2cc(NC(=O)CCCCCC(=O)Nc3ccccc3N)ccc2O[C@H]1CN(C)C(=O)Nc1ccc(C(F)(F)F)cc1	0.3
COc1ccc(S(=O)(=O)Nc2cccc3c2O[C@@H](CN(C)Cc2ccncc2)[C@H](C)CN([C@H](C)CO)C3=O)cc1	-0.4
C[C@@H]1CN([C@@H](C)CO)C(=O)c2cc(NC(=O)Nc3ccc(C(F)(F)F)cc3)ccc2O[C@@H](C)CCCCO[C@H]1CN(C)Cc1ccc(C(=O)O)cc1	0.0
Cc1cc(C(=O)Nc2cccc3c2O[C@H](CN(C)C)[C@H](C)CN([C@H](C)CO)C3=O)n(C)n1	0.9
C[C@@H]1CN([C@H](C)CO)C(=O)Cc2cc(NC(=O)Nc3ccc4c(c3)OCO4)ccc2O[C@@H]1CN(C)Cc1ccc2c(c1)OCO2	-0.4
COc1ccc(CN(C)C[C@@H]2Oc3ccc(NC(=O)Cn4cnnn4)cc3C(=O)N([C@@H](C)CO)C[C@H]2C)cc1	0.5

# Quoted at random: 3 compounds from above
SMILES	A1 apoptosis 2
COc1ccc(NC(=O)Nc2ccc3c(c2)C(=O)N([C@H](C)CO)C[C@H](C)[C@H](CN(C)C(=O)CCCN(C)C)OCCCC[C@H](C)O3)cc1	-1.0
Cc1ccc(S(=O)(=O)N(C)C[C@@H]2Oc3ccc(NC(=O)Cn4cnnn4)cc3C(=O)N([C@H](C)CO)C[C@H]2C)cc1	-0.3
C[C@@H]1CN([C@@H](C)CO)C(=O)c2cc(NC(=O)Nc3ccc(C(F)(F)F)cc3)ccc2O[C@@H](C)CCCCO[C@H]1CN(C)Cc1ccc(C(=O)O)cc1	0.0

# More entries follow:
SMILES	A1 apoptosis 2
COc1cc(CO)ccc1OC(C)=O	1.3
C[C@@H]1CN([C@H](C)CO)C(=O)Cc2cc(NC(=O)Cc3cn(C)c4ccccc34)ccc2O[C@@H]1CN(C)Cc1ccc(C(F)(F)F)cc1	1.7
C[C@@H]1CN([C@@H](C)CO)C(=O)c2cccc(NC(=O)NC3CCCCC3)c2O[C@H]1CN(C)Cc1ccc(C(=O)O)cc1	-0.2
C[C@@H]1CN([C@@H](C)CO)C(=O)c2cc(NC(=O)CCCN(C)C)ccc2O[C@@H]1CN(C)Cc1ccccc1	-0.2
C[C@H]1CN([C@@H](C)CO)C(=O)c2cccc(NC(=O)C3CCOCC3)c2O[C@H]1CN(C)C(=O)Nc1ccc(F)cc1	-0.4
C[C@@H]1CN([C@@H](C)CO)C(=O)c2cc(NC(=O)Nc3ccc(C(F)(F)F)cc3)ccc2O[C@H]1CN(C)C(=O)Nc1cccc2ccccc12	0.4
C[C@@H]1CN([C@@H](C)CO)C(=O)Cc2cc(NC(=O)C3CC3)ccc2O[C@@H]1CN(C)C(=O)Nc1ccc2c(c1)OCO2	-0.7
Cc1cc(C(=O)Nc2cccc3c2O[C@@H](CN(C)S(C)(=O)=O)[C@H](C)CN([C@@H](C)CO)C3=O)n(C)n1	0.5
C[C@@H]1CN([C@H](C)CO)C(=O)Cc2cc(NC(=O)Cn3cnnn3)ccc2O[C@@H]1CN(C)C(=O)Nc1ccccc1	0.6
C[C@H](CO)N1C[C@H](C)[C@@H](CN(C)Cc2ccc(-c3ccccc3)cc2)Oc2c(NS(=O)(=O)c3ccc(F)cc3)cccc2C1=O	0.9
Cc1noc(C)c1S(=O)(=O)Nc1ccc2c(c1)C(=O)N([C@H](C)CO)C[C@H](C)[C@H](CN(C)CC1CC1)OCCCC[C@@H](C)O2	0.9
C[C@@H]1CCCCO[C@H](CN(C)S(=O)(=O)c2ccc(Cl)cc2)[C@H](C)CN([C@H](C)CO)C(=O)c2cc(NS(=O)(=O)c3cn(C)cn3)ccc2O1	0.1
C[C@H]1CN([C@@H](C)CO)C(=O)c2cc(NC(=O)C3CCCCC3)ccc2O[C@@H]1CN(C)C(=O)Nc1ccc2c(c1)OCO2	-0.3
C[C@@H]1CN([C@@H](C)CO)C(=O)Cc2cc(NC(=O)Cn3cnnn3)ccc2O[C@@H]1CN(C)Cc1ccc(-c2ccccc2)cc1	1.2
C[C@@H]1CN([C@@H](C)CO)C(=O)c2cc(NC(=O)Cc3cn(C)c4ccccc34)ccc2O[C@@H]1CN(C)S(=O)(=O)c1ccc(F)cc1	-0.9
C[C@@H]1CN([C@@H](C)CO)C(=O)c2cc(NC(=O)c3ccncc3)ccc2O[C@@H]1CN(C)CC1CCCCC1	-0.2
C[C@@H]1CCCCO[C@@H](CN(C)C)[C@H](C)CN([C@@H](C)CO)C(=O)c2cc(NS(=O)(=O)c3cn(C)cn3)ccc2O1	-0.2
C[C@H](CO)N1C[C@H](C)[C@H](CN(C)Cc2ccc(C(=O)O)cc2)Oc2ccc(NC(=O)Nc3ccc(F)cc3)cc2CC1=O	0.0
C[C@H](CO)N1C[C@H](C)[C@@H](CN(C)C(=O)NC2CCCCC2)OCCCC[C@H](C)Oc2ccc(NC(=O)NC3CCCCC3)cc2C1=O	1.2
COCC1=C([C@H](O)c2ccccc2)[C@H](CO)[C@@H]2C(=O)N(Cc3ccccc3)C(=O)[C@@H]2C1	-0.3

# Laid out differently: entries from further up
C[C@H]1CN([C@@H](C)CO)C(=O)c2cc(NC(=O)C3CCCCC3)ccc2O[C@@H]1CN(C)C(=O)Nc1ccc2c(c1)OCO2
- A1 apoptosis 2: -0.3
C[C@@H]1CCCCO[C@@H](CN(C)C)[C@H](C)CN([C@@H](C)CO)C(=O)c2cc(NS(=O)(=O)c3cn(C)cn3)ccc2O1
- A1 apoptosis 2: -0.2

# (further entries)
SMILES	A1 apoptosis 2
C[C@@H]1CN([C@H](C)CO)C(=O)c2cccc(NC(=O)C3CC3)c2O[C@@H]1CN(C)Cc1ccc2c(c1)OCO2	-0.2
Cc1noc(C)c1NC(=O)N(C)C[C@@H]1OCCCC[C@H](C)Oc2ccc(NC(=O)c3ccncc3)cc2C(=O)N([C@@H](C)CO)C[C@H]1C	0.0
C[C@H](CO)N1C[C@H](C)[C@H](CN(C)Cc2ccc3cccnc3c2)OCc2cn(nn2)CCCC1=O	-0.6
Cc1noc(C)c1S(=O)(=O)Nc1ccc2c(c1)C(=O)N([C@@H](C)CO)C[C@H](C)[C@H](CN(C)C(=O)CCC(F)(F)F)OCCCC[C@@H](C)O2	0.2
C[C@@H]1CCCCO[C@H](CN(C)C(=O)C2CCCCC2)[C@@H](C)CN([C@@H](C)CO)C(=O)c2cc(NC(=O)c3ccccc3)ccc2O1	0.2
C[C@H]1CN([C@@H](C)CO)C(=O)CCCn2nncc2CO[C@H]1CN(C)S(=O)(=O)c1cn(C)cn1	-0.4
Cc1noc(C)c1NC(=O)N(C)C[C@@H]1Oc2c(NC(=O)C3CC3)cccc2C(=O)N([C@@H](C)CO)C[C@H]1C	0.7
COc1ccc(CN(C)C[C@H]2Oc3ccc(NC(=O)Cc4cn(C)c5ccccc45)cc3CC(=O)N([C@H](C)CO)C[C@H]2C)cc1	0.7
C[C@@H]1CCCCO[C@@H](CN(C)Cc2ccccc2)[C@@H](C)CN([C@@H](C)CO)C(=O)c2cc(N(C)C)ccc2O1	0.5
Cc1ccc(S(=O)(=O)N(C)C[C@@H]2Oc3ncc(-c4cccc(C(F)(F)F)c4)cc3C(=O)N([C@H](C)CO)C[C@@H]2C)cc1	-0.2
COC(=O)CCCCCCC(=O)N/N=C/c1cc(Br)ccc1O	-0.4
C[C@@H]1CN([C@@H](C)CO)C(=O)c2cc(NC(=O)Nc3ccccc3)ccc2O[C@@H](C)CCCCO[C@@H]1CN(C)C(=O)C1CCCCC1	-0.6
COc1ccc(S(=O)(=O)Nc2ccc3c(c2)C(=O)N([C@H](C)CO)C[C@@H](C)[C@@H](CN(C)Cc2ccccc2)O3)cc1	-1.4
CC(C)NC(=O)Nc1ccc2c(c1)CC(=O)N([C@H](C)CO)C[C@@H](C)[C@@H](CN(C)CC1CC1)O2	-0.8
C[C@@H]1CN([C@@H](C)CO)C(=O)Cc2cc(NC(=O)c3ccncc3)ccc2O[C@H]1CN(C)C(=O)Nc1ccc(F)cc1	0.1
C[C@H](CO)N1C[C@H](C)[C@H](CN(C)Cc2ccc(-c3ccccc3)cc2)Oc2ccc(NC(=O)Cc3cn(C)c4ccccc34)cc2C1=O	-0.5
COc1ccc(NC(=O)Nc2cccc3c2O[C@@H](CN(C)Cc2ccncc2)[C@H](C)CN([C@H](C)CO)C3=O)cc1	0.5
Cc1noc(C)c1NC(=O)Nc1ccc2c(c1)C(=O)N([C@@H](C)CO)C[C@@H](C)[C@@H](CN(C)S(=O)(=O)c1cccs1)OCCCC[C@H](C)O2	0.0
C[C@H](CO)N1C[C@H](C)[C@H](CN(C)Cc2ccc(C(F)(F)F)cc2)Oc2ccc(NC(=O)NC3CCCCC3)cc2C1=O	-3.3
Cc1noc(C)c1S(=O)(=O)N(C)C[C@H]1Oc2ccc(NS(=O)(=O)c3ccc(Cl)cc3)cc2CC(=O)N([C@@H](C)CO)C[C@H]1C	-1.6
C[C@H]1CN([C@@H](C)CO)C(=O)c2cccc(NC(=O)CCCCCC(=O)Nc3ccccc3N)c2O[C@H]1CN(C)S(=O)(=O)c1ccccc1	0.1
C[C@H](CO)N1C[C@H](C)[C@@H](CN(C)CC2CCCCC2)OCCCC[C@H](C)Oc2ccc(NC(=O)c3ccccc3)cc2C1=O	0.1
[N-]=[N+]=NCC(=O)N1CCC2(CC1)C(=O)NCN2c1ccccc1	0.7&2.5
